Compound activity as filed in PubChem.
gsp agonist: gsp mutant agonism; gsp mutant cells, cAMP HTRF, 30 min; control for the full effect not named in the record; 340,000 tested, 0.13% active; AID 624287; Potency, µM (titrated, usually from 76.9 µM), without a hit: at the top dose activation (cAMP increase), usual class: activators; active = well fitted activation curve with a large enough effect; inconclusive = small, poorly fitted or top-dose-only effect, or another doubt; inactive = no such curve, though single readings can be large or run the other way; cell line not stated here;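 note: phosphodiesterase inhibitor Ro 20-1724 added with compounds to block cAMP breakdown; potency is the fitted concentration of half-maximal effect; nearly all actives have a fitted effect of over 60% in size; about a fifth of the inactives were tested at one dose only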
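Cells in DMEM/10% FBS with G418 were pretreated with compounds in DMSO plus […] (300 uM stock) for 30 min at 37C. cAMP was measured by HTRF (cAMP-d2 plus anti-cAMP antibody-K) after 30 min at room temperature.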
PINK1 expr mod: PINK1 expression modulation; 410,000 tested, 0.2% active; PINK1 immunofluorescence, high-content cytometry, 24 h; Potency, µM (titrated, usually from 76.6 µM), inactives show top-dose activation (PINK1 increase), most hits filed as activators; active = well fitted activation curve with a large enough effect; inconclusive = small, poorly fitted or top-dose-only effect; inactive = flat fitted curve, though single readings scatter; cell line not stated here;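 note: potency is the fitted concentration of half-maximal effect; % of control where 0% means no effect; nearly all actives have a fitted effect of over 65% in size; a mitochondrial uncoupler was the plate control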
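Compound titrations (5 concentrations, 24 h) on a stable cell line; DMSO and CCCP controls. Endpoint: fixed-cell PINK1 immunofluorescence with mitochondrial, cell and nuclear markers, scanned by microplate cytometer.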
ClpP mod: qHTS Assay for Activators of ClpP; ATP-dependent Clp protease proteolytic subunit (Bacillus subtilis (strain 168)), P80244; purified B. subtilis ClpP, FRET peptide cleavage, 20 min; Potency, µM (highest dose often 57.5 µM), for the others: at the top dose activity change, negative = active; 340,000 tested, 1.9% active; active = well fitted falling curve with a large enough effect; inconclusive = small, poorly fitted or top-dose-only effect; inactive = no such curve, though single readings can be large or run the other way; note: potency is the fitted concentration of half-maximal effect; the source files actives as falling curves though it sought activators and does not explain the sign; nearly all actives have a fitted effect of over 65% in size; many hits overshoot -100%
Target sequence (P80244 whole entry, looked up): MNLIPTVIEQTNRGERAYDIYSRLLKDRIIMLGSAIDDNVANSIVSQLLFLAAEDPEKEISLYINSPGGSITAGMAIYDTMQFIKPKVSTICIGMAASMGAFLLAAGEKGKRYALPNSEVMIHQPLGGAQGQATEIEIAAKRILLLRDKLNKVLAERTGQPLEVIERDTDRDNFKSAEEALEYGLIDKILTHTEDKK
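ClpP 10 microg/mL final, pH 8 Tris/KCl buffer with BSA, glycerol, Tween-20; compound pinned in; FRET-FV substrate; RT 20 min; Ex320/Em430; ΔFRET vs ADEP 5.8 microM, DMSO, no enzyme.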
Sfp PPTase inh: inhibitors of Bacillus subtilis Sfp phosphopantetheinyl transferase | Biochemical Sfp PPTase activity, qHTS | 310,000 tested, 3.5% active | Potency, µM, inactives show max response, negative = inhibition, hits mostly inhibitors; active = well fitted inhibition curve with a large enough effect; inconclusive = small, poorly fitted or top-dose-only effect, or another doubt; inactive = no such curve, though single readings can be large or run the other way;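 note: the enzyme is Sfp with the accession as filed and its product quenches rhodamine fluorescence; potency is the fitted concentration of half-maximal effect; 0% = enzyme reaction without inhibitor and -100% = no enzyme wells; top concentration of the series not given in the record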
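Reaction rates are the 30-min fluorescence difference (ex 525, em 598 nm) in wells containing 15 nM Sfp, 5 uM rhodamine-CoA and 12.5 uM BHQ-2-YbbR at pH 7.6 with 10 mM MgCl2.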
D2 ag: agonists of human D2 dopamine receptor (beta-arrestin); P14416; activation, % (no concentration beside the values); 360,000 tested, 0.084% active; DiscoveRx PathHunter D2 beta-arrestin, luminescence, 90 min; 100% = 57 uM dopamine signal; in the data active = activation above about 40%; inconclusive = about 15% to 40%; inactive = below about 15%; note: compound concentration not given in the record; the text of the record calls up to 30% inactive
Target sequence (P14416 whole entry, looked up): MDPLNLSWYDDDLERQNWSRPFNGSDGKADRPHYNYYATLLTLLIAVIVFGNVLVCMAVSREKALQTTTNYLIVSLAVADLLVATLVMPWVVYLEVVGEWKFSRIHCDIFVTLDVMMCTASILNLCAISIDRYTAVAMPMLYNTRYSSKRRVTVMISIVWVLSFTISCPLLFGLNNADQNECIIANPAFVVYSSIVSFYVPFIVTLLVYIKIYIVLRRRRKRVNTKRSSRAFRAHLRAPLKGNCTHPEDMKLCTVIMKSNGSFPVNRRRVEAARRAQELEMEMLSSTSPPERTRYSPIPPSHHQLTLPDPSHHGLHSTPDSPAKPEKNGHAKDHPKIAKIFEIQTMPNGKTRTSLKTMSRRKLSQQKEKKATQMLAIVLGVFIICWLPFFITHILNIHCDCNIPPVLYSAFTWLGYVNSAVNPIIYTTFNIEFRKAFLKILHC
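Agonist mode: compounds alone added to overnight-plated D2 PathHunter cells for 90 min at 37 C, with 57 uM final dopamine (EC100) defining full response. Beta-arrestin recruitment detected by chemiluminescent reagent, read after 1 h at ambient temperature.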
Menin MLL FP FL: displaces fluorescein MLL peptide from human menin; Fluorescence polarization, fluorescein-MLL peptide displacement from menin; FP activity change, % at 61.4 µM; 290,000 tested, under 10 active; inconclusive = falling polarisation curve, or a change in total fluorescence; inactive = total fluorescence flat and polarisation flat or rising; no compound was filed as active; the % refers to the polarisation; negative = inhibition;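 note: % of control where 0% means no effect; inhibitors lower the polarisation; unlabelled MLL peptide was the positive control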
gsp antagonist: gsp mutant antagonism; 340,000 tested, 0.4% active; Potency, µM (highest dose often 76.9 µM), for inactives: at the highest dose activity change, negative = inhibition, usual class: inhibitors; gsp-mutant cells, cAMP HTRF, 30 min; control for the full effect not named in the record; active = falling curve of any shape with a large fitted effect; inconclusive = falling curve, mostly with a smaller effect; inactive = flat or rising curve; cell line not stated here;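 note: intracellular cAMP measured with PDE inhibitor Ro 20-1724 present during compound exposure; potency is the fitted concentration of half-maximal effect; % is set by controls: 0 for no effect and ±100 for the full control effect; nearly all actives have a fitted effect of over 65% in size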
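G418-selected cells were plated in DMEM/10% FBS for 16-24 h at 37C, then treated with compounds plus the PDE inhibitor […] (300 uM solution added) for 30 min at 37C. Intracellular cAMP was measured by HTRF after 30 min lysis at room temperature.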
Starred values were filed as active, the others as inactive; ? = inconclusive; / = not tested or not shown; & = joins results of further samples; [ ] = remark or other dose. Only part of the results is shown; the hit share may differ from the screen's.

SMILES | gsp agonist | PINK1 expr mod | ClpP mod | Sfp PPTase inh | D2 ag | Menin MLL FP FL | gsp antagonist
C=CCn1c(O)c(C=NCCN2CCOCC2)c(=O)[nH]c1=S | -35%[inhibitor] | 0.7% | 0.2% | -5% | -1.3 | 0.7 | -16%
CC(=O)Oc1ccc(/C=C/c2cc(OC(C)=O)cc(OC(C)=O)c2)cc1 | / | -0.5% | / | 19% | / | 2.2 | /
C=CCn1c(O)c(N=Nc2c(C)n(C)n(-c3ccccc3)c2=O)c(=O)[nH]c1=S | 6% | -0.3% | -4.3% | 20µM* | -0.6 | / | -8%
Cc1cc(C)c(-c2csc(NC(=O)COC(=O)c3ccc4c(c3)OCO4)n2)c(C)c1 | -59%[inhibitor] | 7.7% | -8.1% | -5% | 7.2 | 5.2 | 8%
O=C(O)C1(c2ccc(Cl)cc2)CCC1 | -5% | -1.1% | -1.0% | 30% | -1.4 | 3.9 | 1%
C#CCN1C(=O)C2(C(C#N)=C(N)OC(C)=C2C(=O)OCc2ccccc2)c2ccccc21 (configuration not stated) | 5% | 0.8%[38.3 µM] | -1.3% | 14% | 1.1 | 0.3 | -3%
O=C(Oc1ccc(Cl)c2cccnc12)N1CCCCCC1 | -17% | 0.5% | ? | 1% | -5.9 | 2.1 | 11%
O=C(OCCN1CCOCC1)C1(c2ccccc2)CCCC1 | 11%[15.4 µM] | 0.1% | / | -3% | 0.3 | -5.7 | 14%
O=C(NC(=S)N1C[C@H]2C[C@H](C1)c1cccc(=O)n1C2)c1ccc(F)cc1 | / | 1.1% | -3.7% | -22% | -5.3 | -6.1 | 2%
Cc1cccc(N2C(=O)NC(=O)/C(=C\c3ccc(N4CCOCC4)cc3)C2=O)c1 | -5%[15.4 µM] | -2.1% | / | 25µM* | -1.4 | ? | -6%
O=C(CCN1CCCCC1)NCC(=O)Nc1ccc(Br)cc1C(=O)c1ccccc1 | -20% | -3.4% | 0.0% | -18% | -1.8 | -0.3 | 10%
COc1ccccc1OCC(=O)N1CCCC(N(C)Cc2ccccc2)C1 (configuration not stated) | -19% | 0.1% | -1.3% | 5% | -3.4 | / | 6%
Cc1c(C)n(O)c2ccc3nonc3c12 | -13%[15.4 µM] | ? | / | -11% | -1.6 | 6.3 | 8%
O=C(COc1ccc2ccccc2c1)N1CCN(Cc2c[nH]c3ccccc23)CC1 | -11% | 0.3% | -1.3% | -26% | -3.7 | -6.5 | -16%
COCCn1cc(C(=O)N2CCC3(CC2)OCCO3)c2c3ccccc3n(C)c2c1=O | 2% | 14%[38.3 µM] | 20µM* | -7% | 1.4 | -0.5 | -12%
CCCCCn1c(=O)c(C(=O)NCc2ccncc2)c(O)c2ccccc21 | 21% | 3.2% | -26% | 9% | -12 | 6.6 | -21%
COc1ccc(N2CCN(C(CNC(=O)Oc3ccccc3)c3cccnc3)CC2)cc1 (configuration not stated) | 1% | / | -0.2% | 14% | -0.6 | -0.3 | -6%
Cn1c(=O)oc2cc(NC(=O)CCl)ccc21 | -41%[inhibitor] | 1.7% | -2.8% | 10% | 2.4 | 2.1 | 4%
CCCCCCN=C(CC)c1c(O)n(CCCC)c(=O)[nH]c1=O | 1% | ? | -0.7% | -9% | -4.0 | 3.5 | -20%
COc1ccc(C(=O)Nc2ccccc2C(=O)NC(C(=O)NCc2ccco2)C(C)C)cc1 (configuration not stated) | -4% | 5.6% | -6.1% | ? | 1.5 | -0.8 | 21%
CCCN(CCC)c1c([N+](=O)[O-])cc(C(F)(F)F)cc1[N+](=O)[O-] | / | 1.0% | / | 4% | / | -4.6 | /
CN1CCC2(CC1)N=C(c1ccc(F)cc1)C(=S)N2 | 9%[15.4 µM] | 1.1% | / | 79µM* | -4.6 | -0.3 | -13%
C=CCc1cc(C=C2C(=O)NC(=O)NC2=O)cc(OC)c1OCc1ccc(C(=O)O)cc1 | -1% | 3.6% | 1.4% | 56µM* | -6.7 | -2.5 | -23%
O=C(CF)NC(NC(=S)Nc1cccc([N+](=O)[O-])c1)C(Cl)(Cl)Cl (configuration not stated) | -35%[inhibitor] | -1.2% | -4.8% | -3% | -6.3 | -3.9 | -6%
CCC(=NCc1ccco1)c1c(O)n(Cc2ccccc2)c(=O)[nH]c1=O | 2% | 20%[38.3 µM] | -1.9% | -19% | -1.9 | ? | 8%
C[C@@H]1C(=O)O[C@H]2C[C@@]34[C@H]5C[C@@H](C(C)(C)C)[C@]36[C@@H](OC(=O)[C@@H]6O)O[C@@]4(C(=O)O5)[C@]21O | -14% | 1.3% | / | 3% | 0.1 | -1.4 | 11%
CCn1cc(C(=O)NCc2ccccc2)c2ccccc21 | 21% | 0.8% | -2.2% | -7% | -6.2 | 3.0 | -2%
COC(=O)C1=C(c2ccc(F)cc2F)C[C@@H]2CC[C@H]1N2C(=O)NCCOc1ccccc1 | 3% | 2.9% | 0.4% | / | -0.9 | / | -5%
CCSC1=NN1c1cc(C)nc(N)n1 | ? | -1.0% | -0.5% | 11% | -2.8 | 7.0 | 3%
COc1ccc(CN2C(=O)NC(=O)/C(=C/c3ccoc3)C2=O)cc1 | 1% | 3.0% | -1.4% | ? | -3.7 | ? | 4%
Cc1ccc(N2C(=O)NC(=O)/C(=C\c3cn(CC(=O)O)c4ccccc34)C2=O)cc1 | 14% | -0.1% | 0.0% | -25% | -1.0 | 16 | 14%
CCCCn1c(C)c(C(=O)O)c2cc(OC)ccc21 | -69%[inhibitor] | 3.8%[38.3 µM] | -22% | 6% | -2.0 | 1.6 | -19%
CCN(CC)C(=O)c1ccc(NC(=O)c2cccc(C(F)(F)F)c2)cc1 | -16% | 2.2% | / | 13% | 2.4 | 1.2 | -6%
Fc1cccc(C2NCCc3[nH]cnc32)c1 (configuration not stated) | 3%[15.4 µM] | -1.6% | -0.3% | 1% | -0.6 | 4.3 | 14%
Cn1c(=O)oc2cc(S(=O)(=O)N3CCOCC3)ccc21 | -1% | 0.2% | 1.4% | 2% | -0.1 | 2.0 | 6%
Cc1cc(C=O)c(C)n1C1CCCCC1 | 10% | -3.3% | -0.3% | 1% | -4.4 | 6.2 | 15%
COC(=O)C1=C(c2ccc3ccccc3c2)C[C@@H]2CC[C@H]1N2C(=O)NC1CCCCC1 | 3% | 0.4% | 1.9% | / | -0.1 | / | -5%
COc1ccccc1CN1CCN(C(=O)Cc2ccccc2)CC1 | -4% | 0.2% | 1.3% | -26% | -3.3 | 1.7 | 9%
N#CC1=C(N)Oc2c(c(=O)oc3ccccc23)C1c1ccccc1OC(=O)c1cccs1 (configuration not stated) | 1%[15.4 µM] | -1.4% | 1.5% | 11% | 5.7 | -0.9 | -1%
CCCCC12CNCC(C)(CNC1)C2=O | 23% | ? | -2.1% | 18% | -1.6 | 3.7 | -1%
FC(F)(F)c1cccc(CN2CCCCCC2)c1 | -34%[inhibitor] | -2.7% | -0.9% | -13% | -3.1 | 1.2 | -1%
CN(C)C(=O)On1c(-c2ccccc2)nc2ccc(Cl)cc21 | 15% | 3.0% | -6.4% | 15% | -3.9 | 4.1 | -10%
Cc1ccc(C(=O)C2(C)N(O)C(C)C(c3cccs3)=[N+]2[O-])cc1 (configuration not stated) | -36%[inhibitor] | / | -0.2% | 6% | 1.0 | 0.9 | -1%
Cc1nc2ccccc2c(=O)n1-c1ccncc1 | 6% | -0.6% | -0.9% | 10% | -5.2 | 2.4 | 11%
OCC[n+]1c2ccccc2nc2ccc(N3CCOCC3)cc21 | -2%[15.4 µM] | 0.3% | / | ? | -2.7 | -21 | ?
CN1CCN(C(=O)O[C@H]2c3nccnc3C(=O)N2c2ccc(Cl)cn2)CC1 | -22% | 2.5% | / | 11%&25% | 1.1 | -1.9&-1.3 | 9%
Cc1ccc2c(c1)c(=O)c1c3n2CCN(CC#N)C3CC1 (configuration not stated) | -38%[inhibitor] | 0.3% | -18% | 14% | -8.0 | 2.0 | -7%
O=C(Cn1ncc2c3ccccc3n(Cc3ccc(F)cc3)c2c1=O)N1CCC2(CC1)OCCO2 | -13% | 0.9% | ? | -5% | -1.2 | 2.0 | -6%
COC(=O)C1=C(c2ccccc2)C[C@@H]2CC[C@H]1N2C(=O)NCCNC(C)=O | -11% | -1.8% | -1.5% | / | 1.8 | / | 10%
Cn1cccc1/C=C1\C(=O)NC(=O)N(Cc2ccccc2Cl)C1=O | -8% | 11% | / | -15% | -4.3 | 19 | -7%
Going on with the list.
SMILES | gsp agonist | PINK1 expr mod | ClpP mod | Sfp PPTase inh | D2 ag | Menin MLL FP FL | gsp antagonist
CC(=O)c1c(O)n(C)c(=S)n(-c2ccccc2)c1=O | ? | -0.8% | 0.8% | 15% | -3.2 | 7.3 | -6%
O=C(CNC(=O)c1ccco1)OCN1C(=O)c2ccccc2C1=O | ? | 1.7% | -0.9% | 15% | -2.2 | 3.0 | 3%
Cc1c(C(c2ccc(Cl)cc2Cl)c2c(O)c3ccccc3oc2=O)c(=O)n(-c2ccccc2)n1C (configuration not stated) | -9% | 2.9%&0.5% | -2.9%&-25% | 10% | 1.8 | 1.9 | -6%
COC(=O)C1=C(c2ccc(Cl)c(C(F)(F)F)c2)C[C@@H]2CC[C@H]1N2C(=O)N1CCCC1 | 13% | 1.0% | 2.5% | / | 1.6 | / | -12%
COC(=O)C1=C(c2cc3ccccc3s2)C[C@@H]2CC[C@H]1N2C(=O)NCc1ccc(C(F)(F)F)cc1 | 5% | 3.3% | -6.9% | / | -4.0 | / | ?

Three neighbouring entries already listed, quoted:
SMILES | gsp agonist | PINK1 expr mod | ClpP mod | Sfp PPTase inh | D2 ag | Menin MLL FP FL | gsp antagonist
Cc1c(C(c2ccc(Cl)cc2Cl)c2c(O)c3ccccc3oc2=O)c(=O)n(-c2ccccc2)n1C (configuration not stated) | -9% | 2.9%&0.5% | -2.9%&-25% | 10% | 1.8 | 1.9 | -6%
COC(=O)C1=C(c2ccc(Cl)c(C(F)(F)F)c2)C[C@@H]2CC[C@H]1N2C(=O)N1CCCC1 | 13% | 1.0% | 2.5% | / | 1.6 | / | -12%
COC(=O)C1=C(c2cc3ccccc3s2)C[C@@H]2CC[C@H]1N2C(=O)NCc1ccc(C(F)(F)F)cc1 | 5% | 3.3% | -6.9% | / | -4.0 | / | ?
